Assay outcomes: PubChem, ICCB-Longwood Screening Facility, Harvard Medical School
HCMV UL50-53 inh: disrupts HCMV UL50-UL53 complex binding; HTRF UL50-UL53 interaction, normalized percent inhibition; inhibition, % (test concentration not listed); 190,000 tested, 0.15% active;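 active means both replicates at 50% or more, plus weaker picks with an unusually low signal ratio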;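 further: stock transfer was 100 nL into about 20 µL; 0% = negative control wells and 100% = wells with untagged competitor protein; inactives centre near -12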
Sa growth inh: S. aureus growth inhibition. S. aureus RN4220 growth, OD600, 20 h, 42 °C; hits give low values. AID 720641. relative growth, % (concentration not given with the values). 170,000 tested, 0.53% active;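 active means growth at 42 °C up to 50% and 20 or more points under that at 30 °C, or under 10% at both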;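 further: 300 nL library stock went into each well; scaled to the means of positive and negative controls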
GIV-Gai inh: GIV-Galpha-i interaction inhibition; 210,000 tested, 0.42% active; percent of control (FP), % (no concentration beside the values); AID 1224905; Galpha-i3/FITC-GIV peptide fluorescence polarization, 90 min; hits give low values; scaled: aluminum fluoride 0%, vehicle 100%; P08753;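 active means replicate mean at 85% of control or lower, very high polarization wells dropped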;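 further: wells of about 15 µL received 100 nL stock; the first replicate is given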
Target sequence (P08753 whole entry, looked up): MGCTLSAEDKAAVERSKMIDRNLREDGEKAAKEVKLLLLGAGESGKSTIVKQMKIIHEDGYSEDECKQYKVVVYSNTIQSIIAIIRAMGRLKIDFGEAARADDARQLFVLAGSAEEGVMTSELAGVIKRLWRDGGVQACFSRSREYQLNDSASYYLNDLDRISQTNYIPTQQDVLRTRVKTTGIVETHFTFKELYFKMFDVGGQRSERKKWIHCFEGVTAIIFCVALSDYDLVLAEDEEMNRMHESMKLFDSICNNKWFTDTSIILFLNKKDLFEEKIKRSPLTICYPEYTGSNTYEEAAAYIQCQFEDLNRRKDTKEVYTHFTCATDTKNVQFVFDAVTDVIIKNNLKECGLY
Sa growth inh second temp: second read-out of Sa growth inh, no call of its own (marks repeat the call); relative growth, %; measured here: growth at 30 °C;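 optical density after 20 h as mean of two plates; 100% = untreated growth and lower means inhibition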
An asterisk follows results filed as active; . = no result given; & = joins results of further samples.

molecule	GIV-Gai inh	HCMV UL50-53 inh	Sa growth inh	Sa growth inh second temp
O=C(OC1CCCC1)c1ccccc1C(F)(F)F	.	-18	89	89
COC(=O)CNS(=O)(=O)c1ccc(F)cc1	107	1	96	86
Cn1cc(C(=O)NC2CCCC2)c2[nH]c(=O)n(-c3ccc(Cl)cc3)c(=O)c21	100	-22	.	.
CN1C(=O)CC2(CC(=O)N(Cc3ccccc3)C2)C1=O (stereo unspecified)	94	10	88	112
Cc1cccc(NC(=O)c2c(C)cc(C)nc2SCC(=O)Nc2c(C)cc(C)cc2C)c1	101	-24	102	88
O=C(CSc1nc2cc(C(=O)NC3CCCC3)ccc2c(=O)n1CC1CCCO1)c1ccc(F)cc1 (stereo unspecified)	105&101	-1	80	89
O=C(Nc1ccccn1)c1cc2c(s1)CCCC2	106	-10	115	95
COc1ccc2nc3oc(C(=O)N(C)c4ccc(Cl)cc4)cc3cc2c1	107	-19	105	93
Cc1cc(=O)n2[nH]c(C(=O)NCc3ccccc3)nc2n1	105	.	91	89
Cc1ccccc1-c1cc(C(=O)O)c2c(-c3ccccc3)[nH]nc2n1	95	-19	91	86
O=C(Oc1ccc(Cl)cc1)c1ccc2nsnc2c1	101	-14	89	85
COc1ccc(N2CC(=O)N(/N=C/c3ccc(N(C)C)cc3)C2=S)cc1	.	-22	103	83
COc1ccc(NC(=O)Cn2c(=O)n(CC3CCCO3)c(=O)c3ccccc32)cc1 (stereo unspecified)	102	-14	91	87
COC(=O)c1sc(C(C)(C)C)cc1CS(=O)(=O)c1ccccn1	106	-25	112	85
CCC1Oc2cc(S(=O)(=O)N3CCCC(C(=O)NC(C)(C)CC)C3)c(C)cc2NC1=O (stereo unspecified)	110	-1	.	.
COc1ccc(CCNc2nc(SCc3ccc(F)cc3)nc3ccccc23)cc1OC	109	.	118	101
CCOC(=O)COc1cc(O)c2c(=O)cc(-c3ccccc3)oc2c1	106	-8	98	94
COC(=O)c1ccc(COC(=O)C2=NNC(=O)CC2)cc1	.	-10	86	97
CC1=C(C#N)C(c2ccccc2)C2=C(CC(c3ccccc3)CC2=O)N1 (stereo unspecified)	99	.	83	57
O=C1CC2(CCCC2)C(=O)N1c1ccc(I)cc1	106	-19	103	88
Cc1nc(-c2ccc(S(=O)(=O)NCc3ccc(N(C)C)cc3)cc2)co1	102	.	101	90
CCOc1ccc(CCNc2nc3ccccc3nc2C(=O)OC)cc1OCC	135	-26	.	.
CC(C)CC1C2CN(Cc3ccccc3)CC=C2C(C#N)=C(N)C1(C#N)C#N (stereo unspecified)	121	-27	95	66
COc1ccc(Cn2ccnc2SCC(=O)Nc2nc3ccccc3s2)cc1	97	.	108	74
O=C1SCCc2c1n(Cc1ccccc1)c1ccccc21	104	-15	105	91

5 compounds already listed, ordered by the value under GIV-Gai inh, low to high:
structure	GIV-Gai inh	Sa growth inh second temp
CC1=C(C#N)C(c2ccccc2)C2=C(CC(c3ccccc3)CC2=O)N1 (stereo unspecified)	99	57
O=C(Oc1ccc(Cl)cc1)c1ccc2nsnc2c1	101	85
Cc1nc(-c2ccc(S(=O)(=O)NCc3ccc(N(C)C)cc3)cc2)co1	102	90
O=C(Nc1ccccn1)c1cc2c(s1)CCCC2	106	95
CCOc1ccc(CCNc2nc3ccccc3nc2C(=O)OC)cc1OCC	135	.

Later entries:
molecule	GIV-Gai inh	HCMV UL50-53 inh	Sa growth inh	Sa growth inh second temp
COC(=O)c1cc(C(=O)Nc2ccc(C)cc2)c(=O)[nH]c1C	105	4	.	.
CN(C)C(=O)c1cc(Br)ccc1Cl	105	-5	86	91
CN(Cc1nccn1C)c1ncnc2sc3c(c12)CCCC3	.	-31	105	100
CC1(C)CC2CC(C)(CN2C(=O)CSc2nc3ccccc3o2)C1 (stereo unspecified)	.	-8	99	94
NC(=O)C1CCN(c2ncc(C(F)(F)F)cc2Cl)CC1	102	-11	.	.
CC(Sc1ncnc2sccc12)C(=O)Nc1ccc(S(N)(=O)=O)cc1 (stereo unspecified)	.	15	102	89
O=C(Nc1ccc(Br)cc1)c1ccc(Cl)c(S(=O)(=O)N2CCCCCC2)c1	102	.	120	89
COc1ccc(NC(=O)CN2C(=O)c3ccccc3Sc3ccc(C(=O)N4CCOCC4)cc32)c(OC)c1	105	.	91	86
Cc1ccc(N2C(=O)CC(N3CCN(c4cccc(C)c4C)CC3)C2=O)cc1Cl (stereo unspecified)	.	0	106	95
Cc1noc(C)c1COc1ccc(/C=N/NC(=S)NC(C)(C)C)cc1	.	-9	102	87
Cc1ccc(NC(=O)c2ccc3c(c2)NC(=O)c2ccccc2S3)c(Cl)c1	101	-20	121	82
CCCn1c(=O)[nH]c2cc(-c3noc(/C=C/c4ccc(OC)cc4)n3)ccc21	103	-35	.	.
COC(=O)c1ccc(/C=N/NC(N)=S)n1-c1ccc(F)cc1	103	-1	104	98
O=C(c1ccc2c(c1)CCCC2)N1CCN(c2nc3ccc(F)cc3s2)CC1	103	.	120	91
Fc1ccc(-c2csc(=Nc3ccccc3)n2Cc2cccnc2)cc1	.	-4	111	86
COc1ccc(/C=c2\sc3ncnn3c2=O)cc1	.	-36	83	82
Cn1nnnc1-c1ccco1	.	8	106	88
CCCn1c(N)c(C(=O)COC(=O)c2cccnc2SC)c(=O)[nH]c1=O	.	-8	96	92
c1cn(CCCNc2ncnc3sc4c(c23)CCCC4)cn1	102	-13	102	82
CC1(C)CC(CC(N)=O)(c2ccccc2)CCO1 (stereo unspecified)	102	1	124	86
CN(C)C(=O)CSc1nc2nc[nH]c2c(=O)[nH]1	100	-10	.	.
CCOC(=O)CSc1nnc(CNC(=O)c2cccs2)n1C	101	.	116	88
c1ccc2nc3c(nc2c1)c1ccccc1n3CCN1CCCCC1	102	-68	.	.
C/C(=N\O)c1ccc(-n2ccnc2)cc1	111	3	.	.
CCCCn1c(=O)c2oc3ccccc3c2n(Cc2ccccc2C)c1=O	97	.	98	91
COc1ccc(OC)c(N=c2oc3cc(O)ccc3cc2C(=O)Nc2ccccn2)c1	160	-28	113	101
Cc1cccc(N2CCN(Cc3nnc(-c4cccc(Br)c4)o3)CC2)c1C	105	-7	134	98
Cc1ccc(C)c(N2CCN(C(=O)c3cc4c(=O)oc5ccccc5c4s3)CC2)c1	105	-36	94	93
N#CC(C(=O)Cc1ccccc1)c1ccc(Cl)cc1 (stereo unspecified)	101	0	.	.
Cc1ccc(NC(=O)Cn2cc3c(n2)CCCC3)cc1	103	4	96	82
CCOC(=O)c1cc(NC(=O)c2ccc(Cl)cc2)ccc1N1CCOCC1	103	-5	.	.
CC(=O)Nc1ccc2c(c1)oc(=O)n2C(C)C	100	-8	.	.
COc1ccc(S(=O)(=O)N2CCc3cc4cccc(C)c4nc32)c(C)c1	102	-21	.	.
COC(=O)COC(=O)c1ccc(Oc2nc(N(C)C)nc(N(C)C)n2)cc1	107	-21	.	.
C(=N\N=C\c1cccnc1)/c1cccnc1	100	-91	93	96
CN1c2ccccc2C(=O)C(=C2SCCCS2)S1(=O)=O	99	-147	102	83
CCn1cc2c(c1-c1ccc(Cl)cc1)c(=O)n(C)c(=O)n2C	105	-19	.	.
Cc1ccc(S(=O)(=O)N(CC(=O)N2CCN(c3ccc(F)cc3)CC2)Cc2ccccc2)cc1	102	-26	.	.
NC(=O)NC(=O)CSc1nnc(-c2ccccc2)n1Cc1ccc2c(c1)OCO2	.	-8	76	60
Cc1[nH]n(C)c(=O)c1C(=O)c1c(-c2ccccc2Cl)noc1C	108	18	91	95
COc1ccc(-n2c(=O)c3c(c4cc(OC)ccc4n3C)n(Cc3cccc(OC)c3)c2=O)cc1	110	.	98	101
Cc1cccc(-c2nc3ccccc3n2CCC(C)C)c1	106	.	102	62
O=C(c1cc(-c2ccc(Cl)cc2)n[nH]1)N1CCN(C(=O)c2ccco2)CC1	103	.	115	80
O=C(NCc1cccnc1)NC(=O)c1ccccc1	105	-35	104	95
S=C(c1c[nH]c2ccccc12)N1CCCC1	104	.	118	78
COC(=O)CNC(=O)c1cc(-c2ccccc2)nc2ccccc12	101	-41	88	92
Cc1cc(=O)c2cc(C(=O)Nc3ccc(F)cc3)ccc2[nH]1	97&107	-11&12	104	86
C=CCc1c(O)c(CC)cc2c(C)cc(=O)oc12	104	.	79	60
Cc1ccc2[nH]cc(CCNC(=O)c3cccc(NC(=O)c4nnc(C5CC5)s4)c3)c2c1	109	-6	.	.
CN(CC(=O)NC(=O)Nc1ccc2c(c1)OCCO2)C1CCCCC1	.	-19	73	92

Complete entries, looked up by structure.
COc1ccc(-n2c(=O)c3c(c4cc(OC)ccc4n3C)n(Cc3cccc(OC)c3)c2=O)cc1 reads GIV-Gai inh: 110; HCMV UL50-53 inh: .; Sa growth inh: 98; Sa growth inh second temp: 101
Cc1ccccc1-c1cc(C(=O)O)c2c(-c3ccccc3)[nH]nc2n1 reads GIV-Gai inh: 95; HCMV UL50-53 inh: -19; Sa growth inh: 91; Sa growth inh second temp: 86

Continuation.
molecule	GIV-Gai inh	HCMV UL50-53 inh	Sa growth inh	Sa growth inh second temp
O=C(CCCn1nnc2cc(S(=O)(=O)N3CCCC3)ccc21)N1CCN(c2ccccn2)CC1	107	6	.	.
COCCOc1cc(COC)nc(-c2cccc(C)c2)n1	105	-31	94	84
CCOC(=O)c1[nH]c(C)c(CCC(=O)NCc2ccc(OC)cc2)c1C	106	.	110	83
CCCCNC(=O)C1CCN(C(=O)c2cccc(Cl)c2)CC1	101	5	104	89
CCOC(=O)C1CCN(C(C(=O)Nc2ccc(F)cc2)c2ccccc2)CC1 (stereo unspecified)	.	-23	112	88
O=C(CSc1n[nH]c(C(F)(F)F)n1)c1ccccc1	99	2	105	49
CCOc1cc2[nH]c(=O)n(CCC(=O)NC3CCCCC3C)c(=O)c2cc1OCC (stereo unspecified)	105	.	99	91
COc1ccc(-c2noc(-c3scc(-c4cccc(C)c4)c3-n3cccc3)n2)c(OC)c1	98	-22	.	.
CC(C)Nc1ncnc2c1cnn2C	96	4	99	92
CCOc1ccc(N2C(=O)CN(Cc3ccc(OC)cc3)[C@H]3CS(=O)(=O)C[C@H]32)cc1	103	-15	.	.
O=c1c2sc3ccccc3c2n(Cc2cccc(Cl)c2)c(=O)n1Cc1ccc(F)cc1	105	-15	105	94
N#Cc1ccc(-c2csc(-c3ccno3)n2)cc1	98	-10	109	76
CS(=O)(=O)N(CCc1ccccc1)CC(=O)NCc1ccccc1	103	-4	106	100
O=C(CSc1nnc(-c2cc3ccccc3n2-c2ccccc2)o1)Nc1nccs1	102	-13	.	.
COc1ccccc1C(=O)Nc1cccc(C(=O)OCc2cc(=O)n3nc(C)sc3n2)c1	107	.	71	78
COc1ccc(C2C(C#N)=C(N)SC3C(=O)N(c4ccc(Br)cc4)C(=O)C32)cc1 (stereo unspecified)	.	-10	98	79
CC(C)CNC(=O)CN1CCN(c2cc(C(=O)O)c3cc(NC(=O)C(C)(C)C)ccc3n2)CC1	106	4	.	.
Cc1ccccc1S(=O)(=O)Cc1ccc(C(=O)NCCN(C)C)o1	103	1	97	96
COc1ccc(N2CCN(Cc3nnc(-c4cccc(Br)c4)o3)CC2)cc1	103	3	114	103
Cn1c(SCC(=O)NC2(C#N)CCCCC2)nc2sc3c(c2c1=O)CCCC3	.	-35	103	84
CCOC(=O)C1CCN(c2c(Nc3cc(C)[nH]n3)c(=O)c2=O)CC1	97	-48	.	.
CCOc1ccc(/C=C2\C(=O)NC(=S)N(c3ccc(Cl)cc3)C2=O)c(OCC)c1	97	-1	.	.
Cc1ccc(C2=NC3(CCN(C(=O)C4CCCC4)CC3)NC2=O)cc1C	100	-2	91	90
CN(c1nc2ccccc2nc1NS(=O)(=O)c1cccs1)C1CCS(=O)(=O)C1 (stereo unspecified)	.	-10	101	91
CC(C)CCN(C(=O)Nc1ccccc1)C(C)c1cccs1 (stereo unspecified)	107	.	88	103
Cc1cc(C)cc(-n2ccnc2SCC(=O)Nc2ccc3c(c2)OCO3)c1	100	.	84	99
CCCCCCOc1ccc(C2C(=O)N(C3CCCCC3)CC(=O)N2CCC)cc1 (stereo unspecified)	99	.	106	83
CCc1ccccc1NC(=O)Cn1c(=O)n(C(C)C)c(=O)c2oc3ccccc3c21	99	.	69	90
CCN(CC)S(=O)(=O)c1ccc(C(=O)Nc2c3c(nn2-c2ccc(OC)cc2)CSC3)cc1	113	33	.	.
Cc1ccc(C=Nn2nnnc2N)s1	.	-84	97	93
O=C(CSc1ncc(CO)n1CC(=O)NC1CC1)Nc1ccc(Br)cc1	106	-32	.	.
CCOC(=O)c1noc2ncnc(Nc3ccccc3OC)c12	111	-4	.	.
O=C(CCCc1c[nH]c2ccccc12)N1CCCCCC1	.	2	104	93
CCOC(=O)C1CCN(c2nc3c(S(=O)(=O)c4ccc(C)c(C)c4)nnn3c3ccsc23)CC1	101	-11	101	80
CC(C)c1nc2ccccn2c1NC1CCCCC1	99	16	79	97
O=C1CC(c2ccccc2)CC2=C1C(c1ccc(F)c(Br)c1)Nc1ccccc1N2 (stereo unspecified)	111	-8	.	.
N#Cc1nc2c(nc1C#N)-c1ccccc1C2=O	90	-5	35	6
